Ecoli rRNA inh – inhibits bacterial ribosomal RNA function over humanized ribosomes; E. coli WT GFP vs humanized-ribosome RFP mutants, fluorescence, 24 h; active compounds read low; DMSO median 0, no signal -100; GFP signal change (wild-type ribosome), % (test concentration not listed); AID 720706; 350,000 compounds, 1.6% hits;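 active = significant combined selectivity score with lowered wild-type GFP, culture density cut under 30%, mutant RFP and density less affected; inactive = any of these conditions unmet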; also: one replicate is shown; some compounds called inactive have numbers as strong as hits
ALR inh – blocks human ALR sulfhydryl oxidase activity | P55789 | AID 485317 | purified ALR, DTT oxidation, H2O2 HRP-luminol luminescence | inhibition, % (concentration not given with the values) | 290,000 compounds, 3.8% hits;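 active = mean and each replicate at 75% or more; inconclusive = only one of the two met; inactive = neither met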;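 also: stock transfer was 7.5 nL into about 7.5 µL; 0% = neutral wells and 100% = wells with inactivated enzyme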
Target sequence (P55789 whole entry, looked up): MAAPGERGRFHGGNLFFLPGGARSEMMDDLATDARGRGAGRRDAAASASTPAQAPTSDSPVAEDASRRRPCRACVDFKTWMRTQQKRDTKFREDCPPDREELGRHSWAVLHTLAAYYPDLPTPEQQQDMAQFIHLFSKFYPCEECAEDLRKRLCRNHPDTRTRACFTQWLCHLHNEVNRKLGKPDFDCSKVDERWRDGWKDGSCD
E coli growth – blocks Escherichia coli growth | OD600, 23 h; active compounds read low | OD600 absorbance (test concentration not listed) | 330,000 compounds, 0.21% hits | AID 1053175;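 active = OD600 absorbance below the run mean of sample wells minus 3.6 SD, in any replicate, cut at about 0.56 in these data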;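 also: stock transfer was 300 nL into about 60 µL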
B2AR ag – human beta-2 adrenergic receptor agonism by FAP | P07550 | Am2.2-beta2AR cells, FAP receptor internalization, flow cytometry; reference of the scale not given here | response, % (test concentration not listed) | 340,000 compounds, 0.43% hits | AID 504454;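 active = response above a set limit, near 3 SD of response in nonfluorescent compounds, cut at about 42% in these data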;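 also: stock transfer was 100 nL into about 11 µL; a reference agonist was the positive control; negative values mostly stem from fluorescent compounds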
FGF22 binding – shifts melting point of recombinant human FGF22; Q9HCT0; 340,000 compounds, 1.5% hits; AID 651658; recombinant FGF22 thermal shift, SYPRO orange fluorescence; percent of sucrose octasulfate shift, DMSO zero; calls only at 9.99 µM;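 active = melting point raised past a set limit in the mean and every replicate; inconclusive = no clear call; three in four hits are not shown here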
Target sequence (Q9HCT0 whole entry, looked up): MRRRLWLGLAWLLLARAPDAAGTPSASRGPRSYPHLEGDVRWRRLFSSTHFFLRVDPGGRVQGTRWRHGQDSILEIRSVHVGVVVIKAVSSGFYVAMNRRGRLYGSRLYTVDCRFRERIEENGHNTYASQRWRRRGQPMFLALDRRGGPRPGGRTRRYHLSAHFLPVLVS
HNF4A DNA FP – change in binding of human HNF4 alpha to DNA; HNF4a-FITC DNA binding, fluorescence polarization, 1 h; activity change, % at 10 µM; 360,000 compounds, 0.3% hits; in the data active = activity change above about 30%, passing the limit was not always enough;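 also: controls were the assay level and a saturating level of protein; the project sought stronger binding though the title names inhibitors; some compounds called inactive have numbers as strong as hits; positive values seem to mean higher polarization but the record does not say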
Target sequence (P41235 whole entry, looked up): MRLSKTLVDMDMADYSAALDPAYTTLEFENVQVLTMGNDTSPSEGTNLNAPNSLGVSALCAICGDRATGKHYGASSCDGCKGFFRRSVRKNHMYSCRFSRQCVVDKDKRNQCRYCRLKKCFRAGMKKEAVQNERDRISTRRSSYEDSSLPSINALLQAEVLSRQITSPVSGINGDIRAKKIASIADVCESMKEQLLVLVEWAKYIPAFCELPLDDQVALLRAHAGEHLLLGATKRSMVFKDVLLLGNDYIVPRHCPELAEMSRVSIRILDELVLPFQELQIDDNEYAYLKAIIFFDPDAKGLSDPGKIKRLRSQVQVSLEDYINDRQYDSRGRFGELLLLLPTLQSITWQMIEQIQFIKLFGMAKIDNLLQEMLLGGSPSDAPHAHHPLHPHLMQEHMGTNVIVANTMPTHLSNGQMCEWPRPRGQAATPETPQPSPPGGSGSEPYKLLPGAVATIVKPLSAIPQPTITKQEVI
UCH37 DUB inh – inhibitors of human deubiquitinating enzyme UCH37 | Q9Y5K5 | purified proteasome/UCH37, Ub-AMC cleavage fluorescence | inhibition, % (no concentration beside the values) | 330,000 compounds, 0.33% hits | AID 588478;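 active = mean of two replicates above 20%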;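 also: 0% = compound-free wells with enzyme and 100% = wells lacking proteasome; stock transfer was 100 nL into about 20 µL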
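assay system = human UCH37 enzyme supplied as purified proteasome complex | amount = proteasome at 0.15 nM in the dispensed enzyme solution | schedule = 30 min compound-proteasome preincubation then 25 min substrate reaction, room temperature | measured by = fluorescence, ex 355 nm, em 460 nm | benchmarks = no-proteasome wells (full inhibition) and compound-free wells (no inhibition)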
Ecoli rRNA inh OD600 – further read-out of Ecoli rRNA inh, marked with its call; OD600 change, %; measured here: OD600 growth;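 optical density of the mix in the first replicate; 0 = DMSO median and -100 = no signal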
Ecoli rRNA inh RFP – also measured in Ecoli rRNA inh; calls as there; RFP signal change, %; measured here: RFP humanized mutant strains;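 first replicate; 0 = DMSO median and -100 = no signal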
Active calls of the source: *; i = inactive; ? = inconclusive; . = not tested or not shown; & = joins results of further samples. Not all compounds are listed. The share of hits here may be higher or lower than overall.

cpd	compound	B2AR ag	UCH37 DUB inh	Ecoli rRNA inh OD600	Ecoli rRNA inh	FGF22 binding	HNF4A DNA FP	E coli growth	ALR inh	Ecoli rRNA inh RFP
1	C=C1C(=O)O[C@H]2C1CC[C@@](C)(O)C13C=CC(C)(C21)C1(C3)C(=O)O[C@@H]2C3C(C)=CCC3[C@](C)(O)C[C@H](OC(C)=O)C21 (stereo partly drawn)	2	3.3	-1	10	i	-4.0	0.7	-9	3.0
2	COc1cc(C(=O)N2CCC(n3c(C)nc4cc(F)ccc43)CC2)cc(OC)c1OC	6	0.8	.	.	.	-0.4	0.69	-4	.
3	Cn1c(=O)[nH]c2c(c1=O)CCO2	1	.	19	11	i	4.3	.	.	-2.3
4	COCC(C)n1c(-c2ccc3c(c2)NC(=O)CO3)csc1=Nc1ccc(OC(F)F)cc1 (stereo not drawn)	-65&8	6.1&-1.9	-6&-4	0&-11	i	0.6&1.5	0.68&0.65	-1	1.1&0.5
5	N#Cc1ccc(C(=O)Nc2ccn(-c3ccccc3)n2)cc1	-7	5.0	5.6*	-14*	i	2.0	0.7	-1	4.2*
6	CCc1ccc[n+](-c2[nH]c(=O)sc2/C=N/N=C(\[O-])c2ccncc2)c1	-1	.	6	-1	i	0.5	.	1	-4.1
7	O=C(NCCN1CCOCC1)c1cc(-c2ccc(F)cc2)on1	14	-1.8	.	.	.	4.9	0.63	-3	.
8	CCN(CC)S(=O)(=O)c1ccc(NCc2ccccc2)nc1	-5	-1.0	.	.	.	1.2	0.65	0	.
9	CCCn1nnnc1-c1cc(Cl)cc(Cl)c1	-3	1.6	-7	-5	i	3.5	0.71	-1	-9.1
10	CC1CCN(c2ccc3nnc(CCC(=O)N4CCN(c5ccccc5F)CC4)n3n2)CC1	-9	5.6	-17	-18	i	0.3	0.69	0	2.8
11	CC(C)Cc1nnc(NC(=O)CN2C(=O)NC3(CCCC3)C2=O)s1	-5	1.0	8	7	i	-2.2	0.69	-1	-0.7
12	N#C/C(=C(\O)Cc1ccccc1)c1nc2ccccc2[nH]1	-27	-2.8	.	.	.	3.3	0.74	5	.
13	Cc1cccc(C(=O)OCC(=O)NCCN2C(=O)CSC2=O)c1[N+](=O)[O-]	-53	5.1	3	2	i	0.0	0.71	-7	-0.2
14	CCCCNC(=O)OCCNC(=O)NC	4	0.2	.	.	.	11	0.67	-4	.
15	Cc1cc(Cl)c2oc(C(=O)N(C)Cc3nccn3C)c(C)c2c1	-2	.	-19	-2	i	4.9	.	.	6.7
16	COCCn1nnnc1C(c1ccc(OC)c(OC)c1)N1CCN(C(=O)c2ccco2)CC1 (stereo not drawn)	-2	0.2	12	5	i	-0.3	0.72	.	-2.2
17	O=C(Nc1cccc(Cl)c1)c1ccc(F)c(S(=O)(=O)NCc2cccs2)c1	3	5.1	-63	-54	i	-0.3	0.7	.	-24
18	Cc1ccc(C)c(N2CCN(S(=O)(=O)c3c(C)[nH]c(C)c3C(=O)N3CCCC3)CC2)c1	1	2.3	-14	3	i	-2.6	0.67	-8	1.7
19	O=C(CCCCn1c(=O)c2ccccc2n(CC(=O)NC2CCCC2)c1=O)NCc1ccco1	1	0.1	.	.	.	1.1	0.69	-2	.
20	COc1ccccc1NS(=O)(=O)c1cccc(C(=O)N/N=C(\C)c2ccc(-n3ccnc3)cc2)c1	6	.	.	.	.	6.2	.	0	.
21	CCN(CC(=O)Nc1c(F)cccc1F)C(=O)c1ccc(C2SCCS2)cc1	1	3.3	14	6	i	1.9	0.7	.	-0.3
22	CCCSc1nsc(SCCC)c1C(N)=O	-4	-0.5	.	.	.	-3.7	0.71	0	.
23	CSc1nc(-c2ccc(Cl)cc2)nn1C(=O)c1ccco1	-2	2.5	.	.	.	-3.1	0.73	-1	.
24	O=C(Nc1cccc(C(F)(F)F)c1)c1cncs1	-2	4.4	-8	-3	i	0.1	0.64	1	1.0
25	COc1ccc(CNC(=O)COC(=O)[C@H](Cc2c[nH]c3ccccc23)NC(=O)c2cccs2)cc1	5	-0.2	-2	-1	i	3.8	0.69	-1	-2.5
26	C=CCN1C(=O)C(CC(=O)O)SC1=Nc1ccc(C)cc1 (stereo not drawn)	-9	-1.5	6	8	i	0.1	0.68	-2	2.2
27	COc1cccc(C(O)c2cnc(C(C)C)n2C)c1OC (stereo not drawn)	-2	0.9	5	16	i	0.2	0.64	-5	3.0
28	CC1(C(=O)NS(=O)(=O)c2ccccc2C(F)(F)F)CCN1C(=O)C1CCCCC1 (stereo not drawn)	.	.	22	9	i	2.7	.	.	-2.1
29	C[S+](CC[C@H](N)C(=O)O)C[C@H]1O[C@@H](n2cnc3c(N)ncnc32)[C@H](O)[C@@H]1O (stereo partly drawn)	5	.	.	.	.	5.1	.	5	.
30	O=C(NCc1ccccc1CN1CCCCC1)c1ccccc1N1CCCC1=O	-8	4.1	20	15	i	3.3	0.7	-4	-1.7
31	Cc1cc(Br)ccc1N=C1C(=O)Nc2ccccc21	2	5.4	7	0	i	3.9	0.64	.	3.2
32	Nc1[nH]c(C(=O)c2ccccc2)c(-c2ccc(Br)cc2)c1C(=O)c1ccc(Br)cc1	.	.	-35	-31	i	8.3	.	.	11
33	Cc1noc(C)c1C(=O)N1CCc2ccccc21	-3	-3.5	4	15	i	-2.0	0.65	1	-8.2
34	COc1ccc(NC(=O)Nc2cccnc2)c(OC)c1	20	1.2	4	0	i	-0.9	0.65	-45	-3.9
35	CCCCC(=O)Nc1cccc(NC(=O)C(C)C)c1	2	-0.6	.	.	.	-3.4	0.67	-4	.
36	CC1CCC2(CC1)SCC(=O)N2c1ccc(F)cc1 (stereo not drawn)	0	5.5	-7.9*	-19*	i	3.0	0.69	99*	4.2*
37	CCn1c(=NC(=O)CN2C(=O)CCC2=O)sc2c(OC)ccc(OC)c21	20	0.0	10	7	i	2.8	0.72	-9	-1.4
38	COC(=O)CNC(c1ccccc1Cl)c1cc(Br)ccc1NS(=O)(=O)c1ccc(C)cc1 (stereo not drawn)	1	1.9	8	2	i	3.4	0.75	.	2.3
39	COc1ccc(CCN2CC(C(=O)NCCN3CCNC3=O)CCC2=O)cc1 (stereo not drawn)	11	0.9	15	7	i	3.4	0.67	-6	-0.3
40	Cc1ccc(NC(=O)NN(C)c2c(Cl)c(Cl)nn2C)cc1	-2	6.2	-13	-20	i	1.9	0.68	0	-3.7
41	COc1cc(-c2nnc(SCC(=O)Nc3ccc4c(c3)OCCO4)o2)cc(OC)c1OC	4	7.3	.	.	.	0.5	0.69	48	.
42	O=S(=O)(c1cccc2cccnc12)N1CCN(Cc2ccc3c(c2)OCO3)CC1	-5	-0.4	.	.	.	-0.4	0.7	-2	.
43	COc1ccc(S(=O)(=O)N2CCOCC2)cc1NC(=O)c1ccc(Cl)cc1	-3	3.7	-1	-1	i	-3.3	0.68	-5	-2.3
44	CC(C)C(=O)NNS(=O)(=O)c1ccccc1[N+](=O)[O-]	10	4.7	.	.	.	2.4	0.73	-4	.
45	CCCn1c(=N)n(CC(O)COc2ccc(C)cc2)c2ccccc21 (stereo not drawn)	10	0.7	-18*	-26*	i	0.5	0.63	-9	0.0*
46	Cc1ccc(N(C(=O)CCC(=O)Nc2cc(C)on2)C(C(=O)NC2CCCC2)c2cccs2)cc1 (stereo not drawn)	0	-0.3	.	.	.	-0.8	0.65	-9	.
47	O=C(c1ccco1)N1N=C(c2ccc(Br)cc2)CC1c1ccco1 (stereo not drawn)	0	-14	10	7	i	0.3	0.68	.	2.2
48	COC(=O)C1Cc2c([nH]c3ccccc23)C(C)N1 (stereo not drawn)	-5	-5.9	.	.	.	9.2	0.65	56	.
49	COc1ccccc1Cc1nnc(NC(=O)C2CCN(C(=O)c3ccco3)CC2)s1	3	2.1	-4	-2	i	0.4	0.7	-2	0.9
50	S=C(NC12CC3CC(CC(C3)C1)C2)N1CCOCC1	3	0.4	11	26	i	-4.3	0.68	-10	-0.6
51	O=C(NCCCc1ccccc1)c1cccc(S(=O)(=O)N2CCOCC2)c1	4	4.6	-4	-4	i	-1.9	0.66	1	-5.3
52	CCOc1ccc(NC(=O)N2CCCC2C(=O)NCC2CCCO2)cc1 (stereo not drawn)	0	2.3	4	14	i	2.0	0.69	-11	-1.7
53	COc1ccc(-c2n[nH]c(=S)n2CC(C)C)cc1	5	0.6	.	.	.	-2.2	0.73	88*	.
54	Fc1ccc(C2=Nc3cccc4cccc(c34)N2)cc1	8	5.8	10	12	i	0.3	0.7	-27	0.2
55	Cc1cc2ccccn2c1C(=O)c1ccc(F)cc1	-13	4.0	-25	-9	i	1.0	0.63	.	-3.4
56	CC(C)Oc1ccc(CCNC(=O)C2CCC(=O)N(C3CCCCCC3)C2)cc1 (stereo not drawn)	-7	4.1	-13	-8	i	-0.9	0.69	-1	-2.0
57	Cc1ccc(C(CNS(=O)(=O)c2ccc(F)cc2)N2CCN(C)CC2)cc1 (stereo not drawn)	6	5.8	12	18	i	-0.1	0.68	.	0.6
58	CN1CCN(CC(=O)Nc2nc(-c3c[nH]c4ccccc34)cs2)CC1	7	4.7	5	-2	i	6.1	0.68	?	3.1
59	CCn1c(=O)n(CC(=O)Nc2cccc(OC)c2)c(=O)c2ccccc21	1	3.2	.	.	.	4.8	0.73	.	.
60	O=C(O)CCCC(=O)N1N=C(c2c(-c3ccccc3)c3cc(Cl)ccc3[nH]c2=O)CC1c1cccs1 (stereo not drawn)	-11	-27	-2	-1	i	0.7	0.69	87*	-1.5

Grouped by structure, the compounds so far containing a CF3 group (two)
cpd	compound	B2AR ag	UCH37 DUB inh	Ecoli rRNA inh OD600	Ecoli rRNA inh	FGF22 binding	HNF4A DNA FP	E coli growth	ALR inh	Ecoli rRNA inh RFP
24	O=C(Nc1cccc(C(F)(F)F)c1)c1cncs1	-2	4.4	-8	-3	i	0.1	0.64	1	1.0
28	CC1(C(=O)NS(=O)(=O)c2ccccc2C(F)(F)F)CCN1C(=O)C1CCCCC1 (stereo not drawn)	.	.	22	9	i	2.7	.	.	-2.1

Entries by screen from the entries so far.
Compounds 52–58 in E coli growth: 0.69, 0.73, 0.7, 0.63, 0.69, 0.68, 0.68
Compounds 52–58 in Ecoli rRNA inh OD600: 4, ., 10, -25, -13, 12, 5

Later entries
cpd	compound	B2AR ag	UCH37 DUB inh	Ecoli rRNA inh OD600	Ecoli rRNA inh	FGF22 binding	HNF4A DNA FP	E coli growth	ALR inh	Ecoli rRNA inh RFP
61	Cc1ccc(C)c(S(=O)(=O)Nc2ccc(O)c(C(=O)O)c2)c1	-1	1.2	-3	8	.	-0.5	0.67	43	3.0
62	O=C(CN1C(=O)NC(Cc2c[nH]c3ccccc23)C1=O)NC1CCCCC1 (stereo not drawn)	2	5.6	1	8	i	-1.9	0.68	1	3.7
63	O=C(NCC1(N2CCCCC2)CCCCC1)c1ccc(NS(=O)(=O)c2ccc(F)cc2)cc1	-6	0.2	2	4	.	-2.6	0.68	8	-0.4
64	O=C(NCCN1CCOCC1)N1c2ccccc2Sc2ccccc21	-4	3.2	.	.	.	-1.4	0.71	52	.
65	CCc1cc(/C(Cc2ccccn2)=N\O)c(O)cc1O	6	.	-10*	-33*	i	-0.2	.	67	1.5*
66	Cc1cccc(Oc2sc(C(=O)c3ccccc3)c(N)c2C#N)c1C	35	0.9	.	.	.	3.3	0.73	-2	.
67	Oc1ccccc1-c1cc(-c2ccccc2Cl)[nH]n1	-10	5.8	2	-7	i	-0.8	0.58	89*	-1.7
68	COc1ccc(N2CCN(S(=O)(=O)CCNC(=O)c3cccs3)CC2)cc1	-1	0.5	11	3	i	-1.3	0.71	-9	-2.4

Screens deposited in PubChem BioAssay by several laboratories.
